VACV E9 pol inh: vaccinia E9 polymerase processive synthesis inhibition | 0.94% of 46,000 active | in vitro processive DNA synthesis, absorbance read-out; hits give low values; some inactives read as strong as hits | normalized absorbance, % (test concentration not listed);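 active = replicate mean up to 90% and picked by the depositor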;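 note: 100% = median of the test wells of a plate; 100 nL library stock went into each well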
An asterisk follows results filed as active. The list is partial; rates above refer to the full screens.

Start of the listing, in advance, 5 compounds:
| compound | VACV E9 pol inh |
| --- | --- |
| O=C(Cc1ccccc1)Nc1nnc(-c2ccc(Br)cc2)s1 | 100 |
| N#CC1=C(N)/C(=C\c2ccc(Cl)c(Cl)c2)SC1=N | 91 |
| Cc1ccc(S(=O)(=O)n2c(=O)sc3ccccc32)cc1 | 107 |
| CC(=O)Nc1cccc(OC(=O)c2ccoc2C)c1 | 101 |
| CCOC(=O)c1sc(SC)c2c1CCCC21SCCS1 | 97 |

Results, from the first entry:
| compound | VACV E9 pol inh |
| --- | --- |
| O=C(Cc1ccccc1)Nc1nnc(-c2ccc(Br)cc2)s1 | 100 |
| N#CC1=C(N)/C(=C\c2ccc(Cl)c(Cl)c2)SC1=N | 91 |
| Cc1ccc(S(=O)(=O)n2c(=O)sc3ccccc32)cc1 | 107 |
| CC(=O)Nc1cccc(OC(=O)c2ccoc2C)c1 | 101 |
| CCOC(=O)c1sc(SC)c2c1CCCC21SCCS1 | 97 |
| CS(=O)(=O)NC(c1ccccc1)c1ccccc1 | 101 |
| Cc1ccc(NCC(=O)n2c3c(c4ccccc42)CCCC3)cc1Cl | 100 |
| Cc1nn(C(C)(C)C)c2c1C(c1ccsc1)C1=C(CCCC1=O)N2 (stereo not drawn) | 100 |
| CCc1n[n+](CC(=O)c2ccccc2)c(N)s1 | 105 |
| O=C(CN(Cc1ccc(Br)cc1)S(=O)(=O)c1ccccc1)Nc1ccccc1 | 99 |
| O=C(NCc1ccccc1)c1ccc(NC2=NC3CS(=O)(=O)CC3S2)cc1 (stereo not drawn) | 110 |
| CCc1ccc(NC(=O)CCCN2C(=S)NC(C)(C)CC2C)cc1 (stereo not drawn) | 100 |
| CCc1cc(=O)oc2cc(C)c3c(C(C)(C)C)coc3c12 | 98 |
| COc1cccc2c1c(NC(=O)CSCC(=O)O)nn2C | 105 |
| COc1ccc2cc(CCNC(=O)C3CCCC3)c(=O)[nH]c2c1 | 100 |
| O=C(CCC(=O)Nc1ccc(F)cc1)Nc1ccc(F)cc1 | 99 |
| Cc1ccc(-c2ccc(CCC(=O)O)[nH]2)cc1 | 94 |
| Oc1c(Cl)cc(Cl)c(Cl)c1Cc1c(O)c(Cl)cc(Cl)c1Cl | 100 |
| COC(=O)c1cn(CCOc2ccccc2)c2ccccc12 | 92 |
| CCOc1cccc(C(=O)Oc2cccc3ccc(C)nc23)c1 | 100 |
| CCN1CCN(C(=O)c2ccc(CS(=O)(=O)Cc3ccccc3F)o2)CC1 | 101 |
| CC1CN(CCC(=O)Nc2ccc(Cl)c(C(F)(F)F)c2)CC(C)O1 (stereo not drawn) | 95 |
| CCOc1ccc2c(c1)C(C)=CC(C)(C)[N+]2(C)C | 105 |
| CCC(C)NC(=O)C(C)n1sc2ccccc2c1=O (stereo not drawn) | 97 |
| CCOC(=O)c1c2c3c(cccc3[nH]c1=O)C(=O)c1ccccc1-2 | 84 |
| COc1ccc(-c2nc(SCC(=O)N(C3CCCCC3)C3CCCCC3)n[nH]2)cc1 | 100 |
| Cc1nc2c(C(=O)N3CCOCC3)c[nH]n2c(=O)c1Cc1ccc(F)cc1Cl | 98 |
| CSc1c(CC(=O)NN)n(C)c2ccccc12 | 101 |
| COC(=O)c1sc(SC)c(-c2ccn(S(=O)(=O)c3ccc(Cl)cc3)n2)c1C | 105 |
| CCOC(=O)CSc1cn(Cc2ccc(Cl)cc2)c2ccccc12 | 98 |
| c1nc(NCCc2ccsc2)c2nc3n(c2n1)CCCCC3 | 101 |
| Cc1cc(C)c(C(=O)O)c(=O)[nH]1 | 100 |
| CC(C)(C)n1nc2c(c1NC(=O)Cc1ccccc1)CS(=O)(=O)C2 | 99 |
| CC(NCc1cccs1)C12CC3CC(CC(C3)C1)C2 (stereo not drawn) | 92 |
| Cc1cc2c(c(=O)n1CCCn1ccnc1)C(c1ccccc1)C(C#N)=C(N)O2 (stereo not drawn) | 108 |
| Cc1nc(N)[nH]c(=O)c1Oc1ccccc1 | 98 |
| O=C1CCCN1CN1CCCCC1 | 100 |
| Cc1nn(C)c2nc(-c3cccs3)cc(C(F)(F)F)c12 | 98 |
| O=C(Cn1c(=O)c2cccn2c2ccccc21)NCCc1ccc(Cl)cc1 | 102 |
| N=C1/C(=C\c2coc3ccccc3c2=O)C(=O)N=C2SC=NN12 | 46* |
| O=C(Nc1ccccc1)N1CCN2C(=O)c3ccccc3C12c1ccccc1 (stereo not drawn) | 100 |
| COc1ccc(Cl)cc1S(=O)(=O)NC1CCCCC1 | 101 |
| CC(NC(=O)c1ccccc1)C(=O)NN (stereo not drawn) | 100 |
| COc1ccc(C2Nn3c(C)nnc3SC2C(=O)NCc2ccco2)cc1Cl (stereo not drawn) | 93 |
| Cc1ccc(C)c(NC(=O)C2=CCN(S(=O)(=O)c3ccc(F)cc3)CC2)c1 | 100 |
| CC(C)(C)N1COc2c(cc(Cl)c3cccnc23)C1 | 88 |
| C#CC1(O)CCC2C3CCC4=CC(=O)CCC4(C)C3CCC21C (stereo not drawn) | 102 |
| Cc1ccc(-c2cn3c(n2)sc2cc(C(=O)O)ccc23)c(C)c1 | 104 |
| COC(=O)C1=CN(c2cccc(C(F)(F)F)c2)C=C(C(=O)OC)C1c1ccc(F)cc1 | 101 |
| CCc1nc2c(cnn2-c2ccc(F)cc2)c(=O)n1-c1ccc(OC)c(Cl)c1 | 102 |
| N=C(N)SCC1CN=C(N2CCCC2)S1 (stereo not drawn) | 100 |
| Cc1ccccc1NC1=C(C(=O)c2ccccc2)N(C)S(=O)(=O)c2ccccc21 | 100 |
| CNC(=O)C12CC3CC(CC(C3)C1)C2 | 99 |
| CCc1ccc(-c2nc(CSCC(=O)NCc3ccccc3)c(C)o2)cc1 | 102 |
| O=C(COc1ccc2c(=O)c(-c3ccccc3)coc2c1)OC1CCCCC1 | 100 |
| COC(=O)Cc1[nH]nc2c1C1(CCOC1C)C(C#N)=C(N)O2 (stereo not drawn) | 95 |

Later entries
| compound | VACV E9 pol inh |
| --- | --- |
| Cc1ccc(NC(=O)CCCn2c(=S)[nH]c3ccsc3c2=O)cc1C | 102 |
| CCN1CCN(c2ccc(NC(=O)c3cccc(Br)c3)cc2)CC1 | 97 |
| COc1ccc(C2Nc3ccccc3O2)cc1 (stereo not drawn) | 95 |
| Cc1ccc2cc(C)c(N3CC(C)OC(C)C3)nc2c1 (stereo not drawn) | 103 |
| O=C(O)CNc1c(F)c(F)nc(F)c1F | 100 |
| Cn1c(C(C#N)C(=O)c2ccccc2I)nc2ccccc21 (stereo not drawn) | 101 |
| Nc1nc(-c2cccc(NS(=O)(=O)c3ccccc3)c2)cs1 | 111 |
| COc1ccccc1NC(=O)C1CC(=O)OC12CCOC(C)(C)C2 (stereo not drawn) | 100 |
| O=C(COc1ccc(Cl)cc1)Nc1ccc2nc3n(c(=O)c2c1)CCCCC3 | 91 |
| O=C(CC(C(=O)N1CCc2ccccc21)n1ccnc1)N1CCc2ccccc2C1 (stereo not drawn) | 89 |
| COc1ccc(NS(=O)(=O)c2ccc(C)c(Cl)c2)cc1 | 96 |
| OCCNc1ncnc2c1cnn2-c1ccccc1 | 99 |
| O=C(c1ccc(Br)cc1)N1Cc2ccccc2NC1=S | 100 |
| Cc1nc2ccc(NC(=O)N3CCSCC3)cc2s1 | 96 |
| O=C(c1cccs1)c1coc2ccc(Cl)cc2c1=O | 95 |
| N#C/C(=C/C1=Cc2ccccc2OC1)S(=O)(=O)c1ccccc1 | 110 |
| COC(=O)c1cn(C(=O)c2ccccc2)c2ccccc12 | 100 |
| Cc1cc2cc(CNC(=O)c3ccc(S(=O)(=O)N4CCCC4)cc3)ccc2n1C | 100 |
| CCCCc1nnc(NC(=O)CCCN2C(=O)/C(=C/c3ccccc3)SC2=S)s1 | 101 |
| COc1cccc(-c2nnc(-c3ccc(NC(=O)C(F)(F)F)cc3)o2)c1 | 100 |
| CCOC(=O)c1c2c(n3ccccc13)C(=O)c1ccccc1C2=O | 96 |
| CCN(CC)C(=O)c1c[nH]c2ccc(S(=O)(=O)Nc3cc(C)cc(C)c3)cc2c1=O | 96 |
| Cc1ccc2oc(=O)c(/C=C(\O)CC(C)C)nc2c1 | 113 |
| Cc1[nH]c(=S)c(C#N)c(C)c1Cc1ccc(Cl)cc1Cl | 101 |
| Cc1conc1NC(=O)CNC(=O)C1CCCCC1 | 105 |
| CC(=O)Nc1nc2c(s1)CC(C)CC2 (stereo not drawn) | 97 |
| CCOC(=O)c1nnc(Cc2ccc(C)cc2)o1 | 97 |
| Cc1ccc(NC(=O)c2ccn(C(=O)Nc3cccc(Cl)c3)n2)cc1 | 98 |
| CCOc1cc(/C=C2/C(=O)ON=C2C)cc(Cl)c1OCc1ccc(F)cc1 | 100 |
| CCCC(=O)Nc1nn2c(-c3ccc(OC)cc3)nnc2s1 | 97 |
| O=C(CN1C(=O)/C(=C/c2ccccc2F)Oc2ccccc21)N1CCCC1 | 86 |
| O=S(=O)(CCc1ccccc1)/N=C/c1ccco1 | 100 |
| O=C(CCN1C(=O)CCC1=O)OCC1CCCN2CCCCC12 (stereo not drawn) | 100 |
| N#CC1=C(SCc2ccccc2)NC(=O)C(C#N)C1c1ccccc1Cl (stereo not drawn) | 87 |
| CCOc1ncccc1C(=O)OCc1ccccc1 | 102 |
| COc1ccc(-n2cc(-c3ccccc3)c3c(Nc4ccccc4)ncnc32)cc1 | 101 |
| COc1cc(/C=C(\NC(C)=O)C(=O)O)cc(OC)c1OC | 100 |
| CCOC(=O)N1CCN(C(=O)c2cc3c(=O)n(C)c4ccccc4c3n2C)CC1 | 83 |
| COc1ccc(-c2cc(=O)c3cc(OC(=O)c4ccc(OC)c(OC)c4)ccc3o2)cc1 | 99 |
| CC(c1ccccc1)N1CC(O)=C(c2nc3ccccc3[nH]2)C1=N (stereo not drawn) | 113 |
| CCN(Cc1ccccc1)S(=O)(=O)c1nc2nc(C)c(C)c(C)n2n1 | 101 |
| COc1cccc(OC)c1C1=NCC(=O)Nc2c1oc1ccc(Br)cc21 | 85 |
| COc1ccccc1-c1cc(C(F)(F)F)nc(S(=O)(=O)CCCC(=O)N2CCCCC2C)n1 (stereo not drawn) | 105 |
| O=C(CCn1c(=O)[nH]c2ccccc2c1=O)N1CCCCC1 | 102 |
| CCn1c(C)nc2cc(S(=O)(=O)N3CCOCC3)ccc21 | 100 |
| CC[C@@]1(O)C(=O)OCc2c1cc1n(c2=O)Cc2cc3c(O)cccc3nc2-1 | 99 |
| Cc1cc2c(n1-c1ccc(C(=O)NCC3CCCO3)cc1)CCC(C)C2 (stereo not drawn) | 103 |
| O=C(O)C1CCC(=O)N(C2CCCCC2)C1c1ccccc1 (stereo not drawn) | 118 |
| O=C(Oc1ccc(-c2ccccc2)cc1)c1cccs1 | 99 |
| N#Cc1cc2c(nc1SCc1ccc(Cl)cc1)CCCC2=O | 101 |
| CCOc1ccccc1N1CC(c2nc3ccccc3n2CCCOc2c(C)cccc2C)CC1=O (stereo not drawn) | 100 |
| O=C(Nc1ccc(C(F)(F)F)cc1)c1csc(-c2ccncc2)n1 | 113 |
| CSc1nnc(N2C(=O)CC(c3ccccc3)C3=C2CCCC3=O)s1 (stereo not drawn) | 105 |
| COc1ccc(OCC(O)CNC(C)c2ccccc2)cc1 (stereo not drawn) | 93 |
| O=C(Nc1nnc(-c2ccccc2)o1)c1cc(Cl)sc1Cl | 104 |
| C=CCNC(=O)C1CC2CCCC(C1)C2=O (stereo not drawn) | 99 |

Other results follow.
| compound | VACV E9 pol inh |
| --- | --- |
| CCCNS(=O)(=O)c1ccc2c(c1)oc(=O)n2C | 96 |
| CCOC(=O)c1cc(-c2ccnn2S(=O)(=O)c2ccc(C)cc2)on1 | 86 |
| COC(=O)c1c(NC(=O)C2CC2)sc2c1CCCC2 | 107 |
| COc1ccc(-c2nnc(NC(=O)c3cc(C)cc(C)c3)s2)c(OC)c1 | 104 |
| COc1cccc2cc(C(=O)Nc3ccccc3-c3nnn(CC(=O)NC(C)(C)C)n3)c(=O)oc12 | 102 |
| CN1C(=O)/C(=C\c2ccncc2)SC1=S | 100 |
| COC(=O)C1C(=O)NC(SCC(=O)NCc2ccccc2)=C(C#N)C1c1ccccc1F (stereo not drawn) | 100 |
| COc1ccc(-c2noc(CNC(=O)Nc3cccc(C)c3)n2)cc1 | 100 |
| C=CCn1c(CNC(=O)c2ccccc2)nc2ccccc21 | 108 |
| CCNC(=O)C1CCN(c2nn3cc(-c4ccc(F)cc4)nc3s2)CC1 | 107 |
| O=S(=O)(c1ccc(-c2cc(C(F)(F)F)on2)s1)N1CCc2c([nH]c3ccc(F)cc23)C1 | 101 |
| CCCn1c(CCCNC(C)=O)nc2ccccc21 | 95 |
| CN(C(=O)c1ccc(-c2nc3ccccc3s2)s1)c1ccccc1 | 112 |
| O=C(OCC(=O)N1CCCc2ccccc21)c1ccccc1 | 89 |
| O=C(CCC(=O)N1CCSc2ccccc21)NCc1ccccc1 | 95 |
| COc1ccc2nc(/N=C(\N)NC(=O)N3c4ccccc4Sc4ccccc43)nc(C)c2c1 | 100 |
| CCCNC(=O)c1[nH]c2cc(OC)ccc2c1Sc1ccccc1 | 101 |
| COC(=O)c1ccccc1Cc1nc(=O)c2ccccc2n1C | 97 |
| COc1ccc2ccccc2c1C=Nc1ccc(C)cc1 | 94 |
| CCCc1cc2c(=O)c(-c3ccc4c(c3)OCCO4)coc2cc1O | 100 |
| CCc1cc2c(cc1C(=O)CCN1CCOCC1)OCCO2 | 101 |
| Clc1ccc(-c2nnc(C3CCC(c4ccccc4)CC3)o2)cc1 (stereo not drawn) | 100 |
| O=C(NCCC1=CCCCC1)c1sc2ccccc2c1Cl | 100 |
| COc1cccc(N2C(=O)NC(=O)C(CCc3ccncc3)(CCc3ccncc3)C2=O)c1 | 100 |
| Cc1cccc(OCCn2c(C3CCCO3)nc3ccccc32)c1 (stereo not drawn) | 97 |
| COc1cccc(Cn2nnc3c(=O)[nH]c(C4CCN(C(=O)c5ccccc5)CC4)nc32)c1 | 91 |
| O=S(=O)(c1ccccc1)N1CCN(CCO)CC1 | 101 |
| CCOC(=O)N1CCC(NS(=O)(=O)c2ccc3c(c2)C(C)(C)C(=O)N3C)CC1 | 100 |
| CC1=CC(=O)CN(S(=O)(=O)c2ccc(C)cc2)C1 | 100 |
| COC(=O)c1cc2ccccc2oc1=O | 98 |
| O=C(CNS(=O)(=O)c1cccs1)NC(c1ccccc1)c1ccccc1 | 104 |
| O=C(CCN1C(=O)COc2ccccc21)NCc1ccccc1 | 111 |
| O=C(CCn1c(=S)oc2ccccc21)NN1CCOCC1 | 105 |

Source: PubChem BioAssay (ICCB-Longwood Screening Facility, Harvard Medical School)
